# Ecoli rRNA inh: inhibitors of bacterial rRNA selective over humanized ribosomes | AID 720706 | hit rate 1.6% among 350,000 | E. coli WT GFP vs humanized-ribosome RFP mutants, fluorescence, 24 h; stronger effect = lower value; DMSO median 0, no signal -100 | GFP signal change (wild-type ribosome), % (no concentration beside the values);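 active means significant combined selectivity score with lowered wild-type GFP, culture density cut under 30%, mutant RFP and density less affected; inactive means any of these conditions unmet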; further: one replicate is shown; some compounds called inactive have numbers as strong as hits
# A1 inh: inhibitors of the anti-apoptotic protein A1, read as caspase activation; AID 2462; caspase activation, % (concentration not given with the values); hit rate 0.066% among 330,000; MEF A1-2A-BIM cells, Caspase-Glo 3/7 luminescence, 3 h; percent of clofoctol response, vehicle zero;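 active means over half of replicate activation scores above 10%, or exactly half above 10 with the replicate mean above 10; inconclusive means replicate mean below 10 yet half the replicates above 10; inactive means over half of replicates below 10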;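 further: wells of about 30 µL received 50 nL stock; many hits fall short of the cut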
# Beta cell apopt: beta cell apoptosis inhibition. INS-1E cytokine-induced death, ATP luminescence, 48 h; percent of positive-control rescue, neutral wells zero. hit rate 0.8% among 300,000. protection from apoptosis, % (no concentration beside the values);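 active means all replicates at 75% or more, or half of them and the mean; inconclusive means half reach 75% but not the mean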;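 further: 0% = cytokine-treated negative control wells and 100% = positive control rescue; higher means more ATP so stronger rescue from cytokine killing; wells of about 40 µL received 100 nL stock; the first replicate is given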
# UCH37 inh: blocks the human deubiquitinase UCH37 | Q9Y5K5 | purified proteasome/UCH37, Ub-AMC cleavage fluorescence | inhibition, % (no concentration beside the values) | hit rate 0.33% among 330,000;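 active means mean of two replicates above 20%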;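 further: 0% = compound-free wells with enzyme and 100% = wells lacking proteasome; stock transfer was 100 nL into about 20 µL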
# Target sequence (Q9Y5K5 whole entry, looked up): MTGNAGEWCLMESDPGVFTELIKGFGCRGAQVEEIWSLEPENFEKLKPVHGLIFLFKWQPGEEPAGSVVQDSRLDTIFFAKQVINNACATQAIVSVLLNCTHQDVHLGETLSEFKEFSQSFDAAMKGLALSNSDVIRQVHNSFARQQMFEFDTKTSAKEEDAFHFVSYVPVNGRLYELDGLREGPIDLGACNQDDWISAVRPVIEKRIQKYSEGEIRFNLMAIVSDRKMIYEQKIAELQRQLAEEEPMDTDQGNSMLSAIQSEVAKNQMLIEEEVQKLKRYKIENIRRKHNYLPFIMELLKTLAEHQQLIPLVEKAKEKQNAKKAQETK
#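 Assay system: Proteasome-bound UCH37. Buffer or medium: pH 7.4 Tris-HCl (50 mM) with ovalbumin, ATP-MgCl2, DTT. Incubation: 30 min preincubation with enzyme, 25 min cleavage at room temperature. Measured by: fluorescence, ex 355 nm, em 460 nm. Read-out basis: percent inhibition. Control set: wells without proteasome as full block, compound-free enzyme plus substrate as uninhibited.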
# FGF22 binding: shifts melting point of recombinant human FGF22; Q9HCT0; recombinant FGF22 thermal shift, SYPRO orange fluorescence; percent of sucrose octasulfate shift, DMSO zero; hit rate 1.5% among 340,000; calls only at 9.99 µM;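 active means melting point raised past a set limit in the mean and every replicate; inconclusive means no clear call; three in four hits are not shown here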
# Target sequence (Q9HCT0 whole entry, looked up): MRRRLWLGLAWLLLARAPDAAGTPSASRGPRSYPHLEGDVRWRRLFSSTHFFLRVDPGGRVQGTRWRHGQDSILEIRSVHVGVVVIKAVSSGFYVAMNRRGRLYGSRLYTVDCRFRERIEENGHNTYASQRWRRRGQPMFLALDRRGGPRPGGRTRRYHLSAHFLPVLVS
# E coli growth: inhibitors of Escherichia coli growth; OD600 absorbance (concentration not given with the values); OD600, 23 h; stronger effect = lower value; hit rate 0.21% among 330,000;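 active means OD600 absorbance below the run mean of sample wells minus 3.6 SD, in any replicate, cut at about 0.56 in these data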;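 further: stock transfer was 300 nL into about 60 µL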
# MLL AF4-AF9 inh: blocks AF4 peptide binding to human AF9. inhibition, % at 10 µM. hit rate 0.47% among 350,000. AlphaScreen, biotin-AF4 peptide binding to FLAG-AF9. P42568;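 active means every replicate reaching a set inhibition limit, whatever the replicate mean, cut at about 25% in these data; inconclusive means mean inhibition reaches that limit but some replicates miss it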;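 further: 0% = plate neutral control median and 100% = total signal loss; the record names both 10 and 1 µM as test concentration; the first replicate is given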
# Target sequence (P42568 whole entry, looked up): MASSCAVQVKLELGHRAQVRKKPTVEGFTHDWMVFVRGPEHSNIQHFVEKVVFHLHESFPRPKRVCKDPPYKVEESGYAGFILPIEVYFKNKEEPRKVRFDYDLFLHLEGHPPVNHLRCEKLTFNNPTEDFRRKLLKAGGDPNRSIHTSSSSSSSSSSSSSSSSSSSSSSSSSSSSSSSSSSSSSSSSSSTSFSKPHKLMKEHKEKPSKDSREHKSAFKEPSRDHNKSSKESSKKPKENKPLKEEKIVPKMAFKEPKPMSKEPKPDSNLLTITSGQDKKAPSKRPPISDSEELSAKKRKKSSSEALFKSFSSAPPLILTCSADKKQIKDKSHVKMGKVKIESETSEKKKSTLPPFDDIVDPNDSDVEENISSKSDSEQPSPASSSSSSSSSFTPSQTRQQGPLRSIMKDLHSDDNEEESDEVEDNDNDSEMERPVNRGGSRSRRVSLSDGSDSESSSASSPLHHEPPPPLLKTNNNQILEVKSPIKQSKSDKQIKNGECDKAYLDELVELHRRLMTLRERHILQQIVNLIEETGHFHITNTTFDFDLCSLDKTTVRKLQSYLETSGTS
# T cruzi repl: T. cruzi replication inhibition | T. cruzi beta-gal in NIH3T3, luminescence, 90 h | inhibition, % (no concentration beside the values) | hit rate 1.4% among 300,000;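 active means mean inhibition across valid replicates above about 55%, limit read from the data; inconclusive means mean below that limit but half or more replicates reach it; inactive means mean below it, under half of replicates reach it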;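 further: signal also drops with host cell toxicity which is not excluded here; 0% = plate median of DMSO wells and 100% = zero luminescence signal; higher percent means less beta-gal luminescence so fewer parasites; stock transfer was 50 nL into about 50 µL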
# Ecoli rRNA inh OD600: second read-out of Ecoli rRNA inh, no call of its own (marks repeat the call); OD600 change, %; measured here: OD600 growth;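 optical density of the mix in the first replicate; 0 = DMSO median and -100 = no signal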
# Ecoli rRNA inh RFP: also measured in Ecoli rRNA inh; calls as there; RFP signal change, %; measured here: RFP humanized mutant strains;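 first replicate; 0 = DMSO median and -100 = no signal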
# An asterisk follows results filed as active; i = inactive; ? = inconclusive; nt = not tested or not shown. These rows are one share of the data. The share of hits here may be higher or lower than overall.
cpd	SMILES	Ecoli rRNA inh	Ecoli rRNA inh OD600	Ecoli rRNA inh RFP	A1 inh	Beta cell apopt
1	CCc1ccc(NC(=S)Nc2cc(OC)c(NC(=O)C(C)C)cc2OC)cc1	-31.6	-68.2	41.4	0.0	-1.1
2	CC(C)CN(C(=O)C1CCCC1)C1CCS(=O)(=O)C1 (centres undefined)	-0.3	13.2	-1.2	nt	nt
3	CCOC(=O)C1(Cc2ccccc2C)CCCN(C(=O)CCn2nccc2C)C1 (centres undefined)	-10.8	-14.1	-2.2	0.0	-9.2
4	CCN(CC)S(=O)(=O)c1cc(NC(=O)C(=O)c2c(-c3ccccc3)cc3ccccn23)ccc1C	nt	nt	nt	-0.7	41.4
5	CCOc1cc(-c2nnc(NC(=O)c3ccco3)o2)cc(OCC)c1OCC	-2.4	4.1	-2.9	0.1	nt
6	COc1cccc(NC(=O)Cn2c(=O)n(CC3CCCO3)c(=O)c3ccccc32)c1 (centres undefined)	nt	nt	nt	-0.5	-3.1
7	CN(CC(=O)Nc1cccc(F)c1)CC(=O)Nc1cccc(S(=O)(=O)N2CCCCC2)c1	-22.6	-39.5	-0.2	0.2	2.3
8	CC(=O)NS(=O)(=O)c1ccc(NC(=S)NC(=O)C2CCC2)cc1	4.0	5.2	0.9	nt	nt
9	O=S(=O)(NCC(Nc1ccc(Cl)cc1)c1ccccc1)c1ccc(Cl)cc1 (centres undefined)	-17.8	8.3	8.1	0.6	6.0
10	O=C(O)CNC(=O)c1ccc(NS(=O)(=O)c2ccc3ccccc3c2)cc1	0.7	2.0	-1.3	-1.7	-2.9
11	CNc1nc(C)c(C(C)=O)cc1C#N	nt	nt	nt	-0.5	-3.7
12	CNS(=O)(=O)c1cccc(C(=O)OCC(=O)c2c(N)n(Cc3ccccc3)c(=O)n(C)c2=O)c1	-26.0*	-9.7*	5.1*	nt	nt
13	O=C(COC(=O)/C=C/c1ccc(F)cc1)NCc1ccc2c(c1)OCO2	9.7	13.4	1.2	-2.2	-1.8
14	O=C(Nc1ccc(Cl)c(Cl)c1)c1csc(-c2ccccc2)n1	nt	nt	nt	-0.2	-6.6
15	Cc1cc(=O)[nH]c(SCC(=O)OCc2ccccc2)c1C#N	-23.1	-12.4	2.0	0.0	-4.6

cpd	UCH37 inh	FGF22 binding	E coli growth	MLL AF4-AF9 inh	T cruzi repl
1	-0.3	i	0.694	8.3	-6.5
2	2.5	i	0.629	-0.4	-9.4
3	0.4	i	0.673	1.2	-10.5
4	1.1	nt	0.672	nt	33.6
5	5.3	i	0.709	-3.9	-9.2
6	2.4	nt	0.694	nt	2.2
7	-0.2	i	0.598	?	nt
8	-0.9	i	0.696	-1.7	-0.3
9	0.5	i	0.739	-5.7	32.1
10	1.4	i	0.617	-2.6	-4.9
11	0.5	nt	0.737	nt	-5.6
12	-0.7	i	0.686	0.3	nt
13	3.8	i	0.68	-1.6	nt
14	0.6	nt	0.685	nt	3.0
15	2.0	i	0.645	-2.7	-0.8

# More structures
cpd	SMILES	Ecoli rRNA inh	Ecoli rRNA inh OD600	Ecoli rRNA inh RFP	A1 inh	Beta cell apopt
16	COc1ccccc1-c1cc(C(F)(F)F)nc(NCc2cccs2)n1	11.0	-17.7	-4.3	0.7	10.7
17	O=C(c1cccc(C(F)(F)F)c1)N1CCC(O)(CS(=O)(=O)Cc2ccc(Cl)cc2)CC1	nt	nt	nt	0.5	-2.8
18	CCc1oc(C(=O)O)cc1COC	nt	nt	nt	1.5	1.6
19	Cc1cc(C)n(C(=O)c2ccc([N+](=O)[O-])cc2Cl)n1	21.6	10.2	0.6	?	-0.2
20	Cc1cccc(NS(=O)(=O)c2cccc(C(=O)N3CCN(S(=O)(=O)c4ccccc4)CC3)c2)c1	-1.6	-0.3	-1.7	0.3	3.5
21	COC(=O)CCc1c(C)nc(N)[nH]c1=O	2.6	-1.1	-3.2	0.0	-2.2
22	Cc1cccc(C)c1NC(=O)CN1C(=O)S/C(=C\c2cccn2-c2cccc(C(=O)O)c2)C1=O	nt	nt	nt	0.6	-1.7
23	Cc1cc(/C=C2/SC(=S)N(c3cccc(C(F)(F)F)c3)C2=O)c(C)n1-c1cccnc1	nt	nt	nt	-0.7	nt
24	Cc1nn(C)c(C)c1CN(C)C(=O)C1(C)CC1(Br)Br (centres undefined)	11.0	8.9	4.8	0.7	-3.7
25	O=c1[nH]c(=S)c2ncn(-c3ccccc3)c2[nH]1	0.7	2.8	-2.6	1.8	-7.7
26	O=C(CSCc1ccc(Cl)cc1)Nc1ccc(S(=O)(=O)N2CCCCCC2)cc1	nt	nt	nt	0.5	-4.4
27	CC[n+]1c(C)n(-c2ccccc2)c2ccc(C(=O)OC)cc21	3.8	0.7	1.7	0.6	-3.4
28	CC(=O)Nc1ccc(S(=O)(=O)N2CCN(C(=O)N3CCCCCC3)CC2)cc1	nt	nt	nt	-1.1	nt
29	Cc1cccc(N(Cc2ccccc2)C(=O)c2ccc(C)c(S(=O)(=O)N3CCOCC3)c2)c1	-17.1	-41.3	-5.1	0.0	1.6
30	COc1cc(/C=C/CN2CCC(CO)(CC3CCCCO3)CC2)ccc1O (centres undefined)	6.9	12.6	-0.5	1.8	-2.5

cpd	UCH37 inh	FGF22 binding	E coli growth	MLL AF4-AF9 inh	T cruzi repl
16	-12.0	i	0.708	-2.6	4.1
17	1.5	nt	0.72	nt	-0.5
18	0.6	nt	0.663	nt	-9.0
19	0.6	i	0.658	-0.3	-4.5
20	1.7	i	0.668	-16.3	?
21	-2.1	nt	0.71	nt	5.3
22	-6.2	nt	0.758	nt	-1.3
23	6.3	nt	0.775	nt	32.7
24	0.0	i	0.613	2.5	-11.9
25	13.9	i	0.643	-6.2	-9.2
26	3.9	nt	0.715	nt	-28.1
27	1.3	nt	0.723	-10.1	-9.8
28	2.9	nt	0.799	nt	-14.8
29	1.2	i	0.718	3.9	nt
30	0.0	nt	0.675	3.6	-1.4

# Part of the list above, tab-delimited.
no.	compound	Ecoli rRNA inh	Ecoli rRNA inh OD600	Ecoli rRNA inh RFP	A1 inh	Beta cell apopt	UCH37 inh	FGF22 binding	E coli growth	MLL AF4-AF9 inh	T cruzi repl
20	Cc1cccc(NS(=O)(=O)c2cccc(C(=O)N3CCN(S(=O)(=O)c4ccccc4)CC3)c2)c1	-1.6	-0.3	-1.7	0.3	3.5	1.7	i	0.668	-16.3	?
22	Cc1cccc(C)c1NC(=O)CN1C(=O)S/C(=C\c2cccn2-c2cccc(C(=O)O)c2)C1=O	nt	nt	nt	0.6	-1.7	-6.2	nt	0.758	nt	-1.3
26	O=C(CSCc1ccc(Cl)cc1)Nc1ccc(S(=O)(=O)N2CCCCCC2)cc1	nt	nt	nt	0.5	-4.4	3.9	nt	0.715	nt	-28.1

# Next part
cpd	SMILES	Ecoli rRNA inh	Ecoli rRNA inh OD600	Ecoli rRNA inh RFP	A1 inh	Beta cell apopt
31	Cc1cc(NC(=O)COC(=O)[C@H](C)NC(=O)c2ccccc2)no1	12.3	8.1	2.9	-0.2	-3.1
32	C=C(Cl)COc1ccc2c(C)cc(=O)oc2c1	nt	nt	nt	-2.7	3.1
33	CC(=O)N1N=C(c2cccc(NS(C)(=O)=O)c2)CC1c1cccs1 (centres undefined)	-3.1	0.1	-0.9	0.0	-7.2
34	COc1ccc(CCNC(=O)CCNS(=O)(=O)c2cccc(Cl)c2)cc1OC	4.9	4.8	-0.8	0.6	-2.5
35	Cc1cc(-c2ccn[nH]2)c(C)s1	2.2	2.4	-2.0	0.2	1.0
36	CCc1ccc(-c2ccc(C(=O)C(F)(F)F)[nH]2)cc1	nt	nt	nt	-1.2	5.3
37	O=C(NN(c1ccccc1)c1ccccc1)c1ccc([N+](=O)[O-])o1	-28.8*	-14.2*	-4.6*	0.1	3.4
38	O=C(c1cccs1)N1CCN(c2ccccc2)CC1	3.9	-3.5	-3.6	-0.1	-3.6
39	CCC(c1nnc(SCC(=O)Nc2c(F)cccc2F)n1Cc1ccccc1)N(C)C (centres undefined)	4.8	2.0	0.4	-0.3	-9.0
40	Cc1cc(=O)[nH]c(SCCCOc2ccccc2Cl)n1	nt	nt	nt	0.2	-5.0
41	CCN(c1ccccc1)S(=O)(=O)c1ccc(Cl)c(NC(=O)CN2CCCCCC2)c1	-36.3	-41.2	-5.6	-0.4	104.4*
42	Cc1ccc(OCCSc2nc3ccccc3n2CC(=O)O)cc1C	6.7	-3.9	0.9	-0.3	nt
43	COc1ccc2c(COC(=O)c3n[nH]c4ccccc34)cc(=O)oc2c1	nt	nt	nt	-1.4	-8.6
44	COc1ccc(NC(=O)C2CCN(S(=O)(=O)c3cn(C)nc3C)CC2)cc1	4.5	6.3	-1.8	-0.6	-6.7
45	Cc1c(C(=O)Nc2ccc(S(=O)(=O)N(C)C3CCN(C)CC3)cc2)oc2ccccc12	-43.3	-43.4	-2.3	0.3	-1.8

cpd	UCH37 inh	FGF22 binding	E coli growth	MLL AF4-AF9 inh	T cruzi repl
31	-1.3	nt	0.69	nt	-5.9
32	-19.1	nt	0.666	nt	6.3
33	0.4	i	0.676	-0.7	-3.6
34	nt	i	nt	-2.4	-11.3
35	-2.0	nt	0.712	-0.2	-2.0
36	3.4	nt	0.723	nt	0.0
37	4.1	nt	0.651	5.0	63.6*
38	6.0	i	0.7	-0.1	6.5
39	-1.1	i	0.699	-0.3	-1.9
40	-0.7	nt	0.699	nt	-8.5
41	0.6	i	0.682	0.5	60.0*
42	1.6	i	0.682	-5.2	-14.2
43	-51.8	nt	0.766	nt	-13.2
44	1.5	i	0.639	-3.2	-22.2
45	3.0	i	0.664	10.7	nt

# Later entries
cpd	SMILES	Ecoli rRNA inh	Ecoli rRNA inh OD600	Ecoli rRNA inh RFP	A1 inh	Beta cell apopt
46	Cc1ccc(C)n1-c1ccncc1	nt	nt	nt	-0.5	-15.0
47	CNC(=O)c1ccc(NC(=O)CCNC(=O)Nc2ccccc2)cc1	5.7	7.0	1.2	nt	nt
48	CCCCN1C2CCCC1CC(NC(=O)c1cccc(Cl)c1)C2 (centres undefined)	-0.7	5.9	-2.1	1.8	-1.1
49	CSc1nsc(SCC(=O)Nc2ccccn2)n1	nt	nt	nt	-0.4	-5.0
50	CC1CCCCN1S(=O)(=O)c1ccc(-n2cnnn2)cc1 (centres undefined)	0.2	5.0	-1.7	-0.3	2.3
51	COc1cc2c(cc1OC)C(c1ccc(Br)cc1)N(C(=O)c1ccccc1C(=O)O)CC2 (centres undefined)	-12.4	-17.0	1.2	-0.5	-1.5
52	CSc1ccccc1NC(=O)CSc1nnc(CNC(=O)c2ccccc2F)n1C	-23.6	-33.6	-6.2	-0.3	-9.3

cpd	UCH37 inh	FGF22 binding	E coli growth	MLL AF4-AF9 inh	T cruzi repl
46	-1.5	nt	0.729	nt	-1.3
47	0.4	i	0.706	3.2	nt
48	2.0	i	0.616	-12.4	9.1
49	-0.4	nt	0.627	nt	-11.4
50	1.1	i	0.683	-0.4	-10.0
51	5.6	i	0.706	-3.5	-14.5
52	3.1	i	0.701	4.0	-2.0

# High-throughput results: PubChem BioAssay, several laboratories
